Sa growth 42C = blocks Staphylococcus aureus growth | actives 0.53% (n = 170,000) | relative growth, % (test concentration not listed) | S. aureus RN4220 growth, OD600, 20 h, 42 °C; active compounds read low;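 active means growth at 42 °C up to 50% and 20 or more points under that at 30 °C, or under 10% at both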;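 further: 300 nL library stock went into each well; scaled to the means of positive and negative controls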
HCMV UL50-53 inh = cytomegalovirus nuclear egress complex inhibition; HTRF UL50-UL53 interaction, normalized percent inhibition; inhibition, % (concentration not given with the values); actives 0.15% (n = 190,000); AID 1918969;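 active means both replicates at 50% or more, plus weaker picks with an unusually low signal ratio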;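 further: stock transfer was 100 nL into about 20 µL; 0% = negative control wells and 100% = wells with untagged competitor protein; inactives centre near -12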
GIV Gai3 FP = GIV-Galpha-i interaction inhibition; Galpha-i3/FITC-GIV peptide fluorescence polarization, 90 min; active compounds read low; scaled: aluminum fluoride 0%, vehicle 100%; P08753; actives 0.42% (n = 210,000); percent of control (FP), % (concentration not given with the values);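 active means replicate mean at 85% of control or lower, very high polarization wells dropped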;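 further: wells of about 15 µL received 100 nL stock; the first replicate is given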
Target sequence (P08753 whole entry, looked up): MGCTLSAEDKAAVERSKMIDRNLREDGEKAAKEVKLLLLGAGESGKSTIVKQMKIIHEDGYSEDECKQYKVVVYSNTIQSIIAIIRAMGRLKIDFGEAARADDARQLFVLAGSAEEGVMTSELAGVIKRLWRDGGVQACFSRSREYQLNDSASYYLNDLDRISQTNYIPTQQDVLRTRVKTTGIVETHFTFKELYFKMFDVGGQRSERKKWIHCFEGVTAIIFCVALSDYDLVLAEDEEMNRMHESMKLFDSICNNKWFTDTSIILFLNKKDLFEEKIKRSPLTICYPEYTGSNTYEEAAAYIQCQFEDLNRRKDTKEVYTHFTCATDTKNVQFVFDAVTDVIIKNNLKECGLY
Sa growth 42C second temp = further read-out of Sa growth 42C, marked with its call; relative growth, %; measured here: growth at 30 °C;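 optical density after 20 h as mean of two plates; 100% = untreated growth and lower means inhibition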
Starred values were filed as active, the others as inactive; · = not tested or not shown.

SMILES | Sa growth 42C | Sa growth 42C second temp | HCMV UL50-53 inh | GIV Gai3 FP
COc1ccc2c(c1)c(=O)c(S(=O)(=O)c1ccc(F)cc1)cn2CC(=O)Nc1ccc(C)cc1C | 109 | 92 | -27 | 100
CCC(O)c1nc2ccccc2n1CC (stereo not given) | 107 | 99 | 27 | 111
Cc1cccc(CNC(=O)CN2C(=O)CSc3c2c(C)nn3-c2ccccc2)c1 | 78 | 94 | · | 105
COc1ccc(-c2nc(N3CCC(C)CC3)c3ccccc3n2)cc1OC | · | · | -3 | 97
Cc1ccc2cc(-c3noc(CCCC(=O)Nc4ccc(Cl)cc4)n3)c(=O)[nH]c2c1 | · | · | -37 | 114
CCN(C(=O)c1cc2c(=O)n3cccc(C)c3nc2s1)c1ccc(OC)cc1 | 119 | 89 | · | 103
CCc1ccc(CNC(=O)c2nn(-c3ccc(C)cc3)c(=O)c3c2c2ccccc2n3C)cc1 | 108 | 110 | 23 | 108
CCC1=NN(C(=O)c2cccnc2)C(O)(c2ccc(Br)cc2)C1 (stereo not given) | · | · | -28 | 126
Cc1ccc(CNC(=O)C2CCN(c3nc4cccnc4s3)CC2)cc1 | · | · | -9 | 107
Cc1noc(C)c1S(=O)(=O)NCc1cccn1Cc1ccccc1 | · | · | -15 | 107
N#C/C(=C/c1ccc(-c2cccc(C(F)(F)F)c2)o1)C(=O)N1CCOCC1 | 92 | 82 | -28 | 102
CCN(CC)S(=O)(=O)c1ccc(/C=C/C(=O)N(c2ccccn2)C2CCCCC2)cc1 | 112 | 100 | 12 | ·
CC1=CC(=O)OC(c2ccccc2)C1 (stereo not given) | 98 | 88 | -35 | 93
Cc1ccc(NS(=O)(=O)c2ccc3c(c2)NC(=O)CCS3)c(Br)c1 | 110 | 55 | · | 104
COC(=O)c1ccc(-c2ccco2)n1CC(=O)N1CCc2ccccc2C1 | 96 | 89 | 5 | 101
FC(F)(F)c1cccc(-c2nnn3c2nc(NC2CCCCC2)c2ccccc23)c1 | 111 | 74 | -9 | 108
Cc1nc(N=C(N)N)nc2ccccc12 | 99 | 44 | 7 | ·
CC(C)(C)C(=O)CSc1nnc2sc3ccccc3n12 | 85 | 94 | -22 | ·
CCOC(=O)c1cc(C)n(CC2CCC(C(=O)Nc3ccc(C(=O)OC)cc3)CC2)c1C (stereo not given) | 119 | 90 | · | 103
O=C(c1ccco1)N1CCN(C(=O)c2cccc3c2C(=O)N(Cc2cccnc2)C3)CC1 | 87 | 92 | -9 | 106
O=C(c1ccc2noc(-c3ccc(Cl)cc3)c2c1)N1CCN(c2ccccc2F)CC1 | · | · | 2 | 100
CC(C)c1ccc(Cn2cnc3ccccc32)cc1 | 48 | 46 | -10 | ·
O=C(Nc1ccc2c(c1)Cc1ccccc1-2)c1ccc(Br)o1 | 111 | 92 | -16 | 107
CCc1cc(C(Nc2nc(C)cc(C)n2)c2ccccc2)c(NC(=O)c2ccccc2)s1 (stereo not given) | · | · | -29 | 112
CCOc1ccccc1NC(=O)COC(=O)Cc1c(Cl)cccc1Cl | 107 | 89 | -20 | ·
Cc1[nH]c(=S)n(CC(C)C)c1C | 101 | 97 | 0 | ·
Cn1c(=O)sc2cc(N(S(C)(=O)=O)S(C)(=O)=O)ccc21 | · | · | -33 | 98
CC(C)CCNC(=O)c1cc2c(=O)oc3ccccc3c2s1 | 120 | 87 | · | 102
COc1cc(Nc2ncc3c(n2)CCN(S(=O)(=O)c2ccc(Cl)cc2)C3)cc(OC)c1 | · | · | -7 | 116
CN1CC2(C(=O)c3ccccc3)CN(C)CC(C(=O)c3ccccc3)(C1)C2 | 101 | 89 | -13 | 103
Clc1cccc(CSc2nc3ccncc3n2Cc2ccccn2)c1 | 87 | 65 | 3 | 99
COCC[N+]1(C)CCCCC1 | 109 | 86 | -6 | 98
COc1cc2ccccc2cc1C(=O)N1CCN(c2nc3c(F)cccc3s2)CC1 | 112 | 91 | · | 96
CCc1cccc(NC(=O)c2cc(-c3ccccc3)n[nH]2)c1 | 105 | 98 | · | 110
CCN(CC)C(=O)c1sc(NC(=O)C(C)Sc2nc(-c3ccccc3)cc(C(F)(F)F)n2)c(C(=O)OC)c1C (stereo not given) | 106 | 102 | 16 | 99
Nc1c(C(=O)C23CC4CC(CC(C4)C2)C3)oc2ccccc12 | 99 | 83 | -8 | 98
CCOC(=O)c1ccc(NC(=O)CC2SC(=O)N(CN3CCOCC3)C2=O)cc1 (stereo not given) | 74 | 71 | -20 | 105
CC(C)Cn1c(N)c(C(=O)c2ccc(S(=O)(=O)N3CCCCC3)cc2)c(=O)[nH]c1=O | 106 | 98 | -24 | ·
Oc1ccccc1-c1nc2cnccn2c1Nc1ccc(Cl)cc1 | 76 | 48 | -16 | 103
CC1CCCC(C)N1CCCN1C(=O)c2cc3occc3n2CC1(C)C(=O)NC1CCCCC1 (stereo not given) | · | · | -14 | 104
O=C1NCCCCC1NS(=O)(=O)c1ccc2c(c1)OCCCO2 (stereo not given) | 104 | 95 | -4 | 103
CC1CCCC(NC(=O)CC2Nc3ccccc3NC2=O)C1C (stereo not given) | 97 | 86 | · | 107
COc1ccc(S(=O)(=O)NCCc2sc(-c3cccc(F)c3)nc2C)cc1 | 114 | 91 | · | 104
CCN1CCN(c2ccc(N3CCCC(C(=O)N4CCN(c5ccccc5)CC4)C3)nn2)CC1 (stereo not given) | · | · | -48 | 107
Cc1csc(=O)n1CCC(=O)OC(C)C(=O)c1ccc(Br)cc1 (stereo not given) | 94 | 88 | -8 | ·
O=C(Oc1ccc(-c2nnco2)cc1)c1cn2ccccc2n1 | 118 | 85 | -11 | ·
C/C(=N\N=C(N)N)c1ccco1 | 98 | 88 | -20 | ·
Cc1cccn2cc(CCNC(=O)CC3CCCCC3)nc12 | 105 | 86 | · | 99
Cc1ccc(-n2c(=O)c3ccccc3n3c(SCC4CCCCO4)nnc23)c(C)c1 (stereo not given) | 102 | 96 | 12 | ·
NC(=S)NCC1CC(c2ccc(Cl)cc2Cl)=NO1 (stereo not given) | 56 | 22 | 2 | 109
Continued:
SMILES | Sa growth 42C | Sa growth 42C second temp | HCMV UL50-53 inh | GIV Gai3 FP
COc1ccc(OC)c(NC(=O)Cn2cnc3sc(C)c(S(=O)(=O)N4CCN(c5ccccc5OC)CC4)c3c2=O)c1 | 98 | 81 | -22 | 100
CCOCCn1ccc2c(OCc3cccnc3)cccc2c1=O | 87 | 83 | -33 | 106
CC(C)CC(=O)Nc1c[nH]c(=O)[nH]c1=O | 104 | 98 | -10 | 100
O=C(Nc1cc(Cl)nc(NC(=O)C2CCCC2)n1)C1CCCC1 | 94 | 88 | 2 | ·
CCNc1sc(C(=O)OC)c(N)c1C#N | 85 | 69 | -13 | 131
CCCN(C(=O)CCc1nc(-c2ccc(C)cc2)no1)c1ccc(OCC)cc1 | 108 | 103 | 4 | 101
CCc1ccc(NC(=O)Nc2ccc3c(c2)N(C)C(=O)c2ccccc2S3)cc1 | 114 | 70 | · | 101
c1coc(-c2nc3nc4ccccc4nc3n2CC2CCCO2)c1 (stereo not given) | 87 | 82 | -55 | 104
O=S(=O)(c1ccc(Cl)cc1)c1nc(-c2ccc(F)cc2)oc1NCc1ccco1 | · | · | -11 | 96
Cc1cc2c(cc3n2CC(C)(C(=O)NC2CCCCC2)N(CCc2ccc(Cl)cc2)C3=O)o1 (stereo not given) | · | · | -20 | 99
COc1cc2c(cc1N)CCCC2 | 74 | 104 | 2 | 103
O=C(CCCn1c(SCC(=O)c2ccc(F)cc2)nc2ccsc2c1=O)NCc1ccc2c(c1)OCO2 | 98 | 89 | 0 | 99
COc1ccc(-c2nc(CN3CCC(C(=O)NCCN(CC(C)C)CC(C)C)CC3)c(C)o2)cc1OC | · | · | -10 | 110
CC(C)NC(=O)CN1C(=O)C2CCCCN2c2ccc(S(=O)(=O)N3CCCCC3)cc21 (stereo not given) | · | · | -14 | 101
CCc1ccc(NC(=O)CSc2nc(C)c(C(=O)Nc3ccccc3)c(-c3ccc(OC)c(OC)c3)c2C#N)cc1 | 102 | 80 | -47 | 109
CCSc1nc2ncn(CC(=O)Nc3ccc(OC)c(Cl)c3)c(=O)c2s1 | · | · | -25 | 106
C/C=C(\C)c1nnc(NC(=O)Cc2ccccc2)s1 | 118 | 95 | -17 | 102
COc1ccc(C2CC(=O)c3cnc(NC(=O)COc4ccccc4)nc3C2)cc1 (stereo not given) | · | · | -12 | 102
CCCC(=O)O/N=C(\c1ccccc1)c1ccncc1 | 99 | 94 | 1 | 106
Cc1cc(C)nc(-n2nc(C)c3c2N(C)C(=O)CC3c2ccccc2Cl)n1 (stereo not given) | 102 | 97 | 22 | 101
CSc1nsc(SCC(=O)OC2CC(C)CCC2C(C)C)n1 (stereo not given) | 86 | 85 | · | 95
CCc1cccc(C)c1NC(=O)c1ccc(OC(C)=O)cc1 | 84 | 81 | -4 | ·
CC(C)Oc1ccc(C(=O)N2CCCCC2CCN2CCCCC2)cc1 (stereo not given) | 97 | 90 | -18 | 103
CC(OC(=O)C1=NNC(=O)CC1)C(=O)Nc1ccccc1-c1ccccc1 (stereo not given) | 75 | 89 | -11 | ·
COc1ccc(S(=O)(=O)N2CCC(n3c(C(F)(F)F)nc4cccnc43)CC2)cc1OC | 81 | 93 | · | 103
N#Cc1nc(-c2ccc(COc3ccccc3)o2)oc1N1CCCCC1 | 94 | 86 | -54 | 97
Cc1ccc(S(=O)(=O)N2CCN(C(=O)CCN3C(=O)c4ccccc4C3=O)CC2)cc1 | 97 | 93 | -26 | ·
O=C(CSc1nnc2sc3ccccc3n12)Nc1cc(C(F)(F)F)ccc1Cl | · | · | 3 | 105
Cc1ccc(-c2ccc(=O)n(Cc3cc(=O)n4ccccc4n3)n2)cc1 | 103 | 94 | -38 | 103
Cc1c2c(n3c(nc4ccccc43)c1C#N)N(c1ccccc1)CC2 | 110 | 89 | -13 | 103
COc1ccc(C)cc1NS(=O)(=O)c1ccc(Cc2cc(C)n[nH]c2=O)cc1 | · | · | -24 | 97
O=C(NC(NCCc1c[nH]c2ccccc12)(C(F)(F)F)C(F)(F)F)c1ccccc1 | 108 | 90 | -10 | ·
Fc1ccc(-c2oncc2-c2nnnn2-c2ccc(Cl)cc2)c(F)c1 | 87 | 81 | -22 | 103
O=S(=O)(c1cccc(F)c1)N1CCC(Oc2ccc(-n3cnnn3)cc2)CC1 | 90 | 88 | -28 | 101
CCN(CCN(C)C)c1ccc(C(=O)O)cc1NS(=O)(=O)c1cc(C)c(C)cc1C | · | · | -35 | 98
Cc1ccc2oc(C(=O)Nc3cccc(-c4nc5ccccc5s4)c3)c(C)c2c1 | 101 | 86 | -2 | 108
CCOC(=O)c1cc(S(=O)(=O)N(C)CC(=O)NCC2CCCO2)cn1C (stereo not given) | · | · | 4 | 100
CC(C)Cn1c(=O)c2ccc(C(=O)NC(C)C)cc2n2c(=S)[nH]nc12 | · | · | -34 | 94
CC(C)(C)OC(=O)N1CCC(c2c(C(=O)N3CCCCC3)cnn2-c2ccc(F)cc2F)CC1 | 99 | 90 | · | 113
COc1ccccc1OCC(O)Cn1c(C2CC(=O)N(c3ccccc3)C2)nc2ccccc21 (stereo not given) | · | · | -15 | 107

Another view of 14 compounds above:
Structure	Sa growth 42C	Sa growth 42C second temp	HCMV UL50-53 inh	GIV Gai3 FP
CC(OC(=O)C1=NNC(=O)CC1)C(=O)Nc1ccccc1-c1ccccc1 (stereo not given)	75	89	-11	·
COc1ccc(S(=O)(=O)N2CCC(n3c(C(F)(F)F)nc4cccnc43)CC2)cc1OC	81	93	·	103
N#Cc1nc(-c2ccc(COc3ccccc3)o2)oc1N1CCCCC1	94	86	-54	97
Cc1ccc(S(=O)(=O)N2CCN(C(=O)CCN3C(=O)c4ccccc4C3=O)CC2)cc1	97	93	-26	·
O=C(CSc1nnc2sc3ccccc3n12)Nc1cc(C(F)(F)F)ccc1Cl	·	·	3	105
Cc1ccc(-c2ccc(=O)n(Cc3cc(=O)n4ccccc4n3)n2)cc1	103	94	-38	103
Cc1c2c(n3c(nc4ccccc43)c1C#N)N(c1ccccc1)CC2	110	89	-13	103
COc1ccc(C)cc1NS(=O)(=O)c1ccc(Cc2cc(C)n[nH]c2=O)cc1	·	·	-24	97
O=C(NC(NCCc1c[nH]c2ccccc12)(C(F)(F)F)C(F)(F)F)c1ccccc1	108	90	-10	·
Fc1ccc(-c2oncc2-c2nnnn2-c2ccc(Cl)cc2)c(F)c1	87	81	-22	103
O=S(=O)(c1cccc(F)c1)N1CCC(Oc2ccc(-n3cnnn3)cc2)CC1	90	88	-28	101
CCN(CCN(C)C)c1ccc(C(=O)O)cc1NS(=O)(=O)c1cc(C)c(C)cc1C	·	·	-35	98
Cc1ccc2oc(C(=O)Nc3cccc(-c4nc5ccccc5s4)c3)c(C)c2c1	101	86	-2	108
CCOC(=O)c1cc(S(=O)(=O)N(C)CC(=O)NCC2CCCO2)cn1C (stereo not given)	·	·	4	100

Next part:
SMILES | Sa growth 42C | Sa growth 42C second temp | HCMV UL50-53 inh | GIV Gai3 FP
COCCCNC(=O)CCCn1nc(-c2ccccc2)c2ccccc21 | · | · | -26 | 104
Cc1nnc(NC(=O)CSc2ccc3nnc(-c4ccccc4)n3n2)s1 | · | · | 2 | 101
c1ccc(-c2cn3c4ccccc4nc3n2CCCN2CCOCC2)cc1 | 87 | 91 | 6 | ·
Nc1ccc2nc(-c3ccc(O)cc3)sc2c1 | 101 | 99 | -28 | 111
Cc1[nH]nc(-c2ccc(S(=O)(=O)N(C)Cc3ccco3)s2)c1C | 110 | 68 | -13 | 103
